nsP2pro inh = CHIKV nsP2 protease inhibition, primary qHTS | hit rate 1.1% among 31,000 | Q8JUX6 | AID 1964107 | FRET peptide cleavage, nsP2pro, fluorescence 1 h | Potency, µM (titrated, usually from 24.9 µM), inactives show at the highest dose activity change, negative = inhibition, usual class: inhibitors; active means well fitted inhibition curve with a large enough effect; inconclusive means small, poorly fitted or top-dose-only effect; inactive means no such curve, though single readings can be large or run the other way; note: nearly all actives have a fitted effect of over 60% in size; a reference inhibitor and vehicle were the controls
Target sequence (Q8JUX6 whole entry, looked up): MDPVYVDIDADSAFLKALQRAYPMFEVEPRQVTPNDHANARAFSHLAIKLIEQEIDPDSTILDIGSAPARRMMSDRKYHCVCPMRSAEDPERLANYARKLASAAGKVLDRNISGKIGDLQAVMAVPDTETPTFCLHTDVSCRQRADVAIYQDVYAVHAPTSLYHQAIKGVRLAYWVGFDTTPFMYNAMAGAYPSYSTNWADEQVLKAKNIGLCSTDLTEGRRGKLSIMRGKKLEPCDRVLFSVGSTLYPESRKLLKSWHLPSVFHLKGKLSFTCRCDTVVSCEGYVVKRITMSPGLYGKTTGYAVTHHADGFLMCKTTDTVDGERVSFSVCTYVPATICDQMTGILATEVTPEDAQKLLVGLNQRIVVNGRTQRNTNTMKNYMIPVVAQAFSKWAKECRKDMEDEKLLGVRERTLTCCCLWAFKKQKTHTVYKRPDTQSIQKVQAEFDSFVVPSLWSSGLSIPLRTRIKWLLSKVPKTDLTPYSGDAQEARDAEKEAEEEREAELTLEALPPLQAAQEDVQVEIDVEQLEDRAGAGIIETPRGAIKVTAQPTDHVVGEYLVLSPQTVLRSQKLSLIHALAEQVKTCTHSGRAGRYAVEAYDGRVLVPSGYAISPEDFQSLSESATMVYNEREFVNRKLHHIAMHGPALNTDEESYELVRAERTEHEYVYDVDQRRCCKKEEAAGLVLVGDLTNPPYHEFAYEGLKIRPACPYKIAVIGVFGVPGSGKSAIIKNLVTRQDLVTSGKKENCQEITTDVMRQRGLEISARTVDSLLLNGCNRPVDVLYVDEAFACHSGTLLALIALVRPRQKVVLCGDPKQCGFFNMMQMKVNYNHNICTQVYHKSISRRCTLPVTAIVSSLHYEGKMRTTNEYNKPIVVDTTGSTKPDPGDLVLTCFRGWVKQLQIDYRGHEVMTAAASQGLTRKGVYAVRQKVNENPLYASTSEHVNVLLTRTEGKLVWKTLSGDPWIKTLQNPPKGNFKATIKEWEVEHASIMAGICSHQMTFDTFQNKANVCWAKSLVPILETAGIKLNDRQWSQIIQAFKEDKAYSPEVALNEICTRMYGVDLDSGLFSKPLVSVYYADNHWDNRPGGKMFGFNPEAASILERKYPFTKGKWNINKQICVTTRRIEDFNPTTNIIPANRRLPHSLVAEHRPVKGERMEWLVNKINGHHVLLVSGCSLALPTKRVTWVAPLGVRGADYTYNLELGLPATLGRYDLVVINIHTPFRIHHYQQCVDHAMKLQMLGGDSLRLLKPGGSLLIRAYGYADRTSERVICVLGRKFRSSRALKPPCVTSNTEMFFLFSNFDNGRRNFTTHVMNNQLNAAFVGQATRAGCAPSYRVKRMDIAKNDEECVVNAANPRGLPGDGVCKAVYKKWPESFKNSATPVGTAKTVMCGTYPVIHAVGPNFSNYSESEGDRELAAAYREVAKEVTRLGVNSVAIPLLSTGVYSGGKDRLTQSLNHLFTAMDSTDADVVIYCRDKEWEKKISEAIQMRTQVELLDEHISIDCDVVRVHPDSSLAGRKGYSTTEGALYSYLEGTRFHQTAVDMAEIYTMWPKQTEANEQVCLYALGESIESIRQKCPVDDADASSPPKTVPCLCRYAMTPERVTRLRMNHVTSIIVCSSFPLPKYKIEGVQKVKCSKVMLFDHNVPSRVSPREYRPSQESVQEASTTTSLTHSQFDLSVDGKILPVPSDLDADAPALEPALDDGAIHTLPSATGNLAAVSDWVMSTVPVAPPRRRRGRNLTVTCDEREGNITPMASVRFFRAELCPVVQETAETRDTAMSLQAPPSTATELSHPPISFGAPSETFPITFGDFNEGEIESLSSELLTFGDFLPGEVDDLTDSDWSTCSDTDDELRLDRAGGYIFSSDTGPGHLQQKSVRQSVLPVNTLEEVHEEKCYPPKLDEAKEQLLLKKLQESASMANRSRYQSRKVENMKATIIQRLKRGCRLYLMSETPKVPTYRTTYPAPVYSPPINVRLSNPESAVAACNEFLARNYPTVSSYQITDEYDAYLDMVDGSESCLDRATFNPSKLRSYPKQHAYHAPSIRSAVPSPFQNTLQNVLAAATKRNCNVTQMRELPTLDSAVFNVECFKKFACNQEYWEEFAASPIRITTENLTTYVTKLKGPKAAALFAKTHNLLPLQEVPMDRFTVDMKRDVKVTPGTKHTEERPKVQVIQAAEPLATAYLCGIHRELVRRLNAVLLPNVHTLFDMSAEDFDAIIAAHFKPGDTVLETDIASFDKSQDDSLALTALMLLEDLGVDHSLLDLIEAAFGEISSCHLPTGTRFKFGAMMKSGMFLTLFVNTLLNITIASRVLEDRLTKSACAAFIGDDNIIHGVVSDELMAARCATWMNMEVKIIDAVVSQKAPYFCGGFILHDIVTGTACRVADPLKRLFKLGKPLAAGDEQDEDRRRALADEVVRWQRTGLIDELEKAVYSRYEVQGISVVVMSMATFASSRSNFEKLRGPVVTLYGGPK
Active calls of the source: *; i = inactive; ? = inconclusive; & = joins results of further samples; [ ] = another dose, or the depositor's remark. % is set by controls: 0 for no effect and ±100 for the full control effect; potency is the fitted concentration of half-maximal effect. These rows are one share of the data; the hit share may differ from the screen's.

SMILES	nsP2pro inh
Cc1cc(CN2CCC3(C2)C(=O)N(C)c2ccccc23)no1 (stereo unspecified)	-12.2%[39.2 µM]
Cc1ccc(-n2nnc(C(=O)Nc3cc(F)ccc3F)c2C)cc1F	-24.7%
Cc1ccc(S(=O)(=O)Nc2cc(Br)ccc2C(=O)Nc2nc(-c3ccccc3)cs2)cc1	i
COC(=O)[C@@H]1Cc2ncn(Cc3ccc(Cl)cc3)c2CN1S(=O)(=O)c1cccs1	?
O=C1O[C@@H]2[C@@H](O)[C@H](O)O[C@@H]2[C@H]1O	?
O=C(NCC(=O)N1CCOCC1)c1cccc(-c2ccsc2)c1	i
Cc1cc(=O)n(CC(=O)N2CCCC(C)(c3ccccc3)C2)nc1C (stereo unspecified)	2.5%
COc1ccc(OC)c(NC(=O)N2CC3CCCN3c3ccccc32)c1 (stereo unspecified)	-21.6%
COc1ccccc1OCCNC(=O)C1(C)CCCCC(=O)N1 (stereo unspecified)	-7.2%
COc1cc2c(cc1OC)CN(C(=O)/C=C/c1c(-c3ccccc3)n(C)c3ncccc13)CC2	-27.5%
O=C(CCn1ccc(=O)[nH]c1=O)N[C@H](c1cccs1)C1CC(O)C1 (stereo partly specified)	i
CCc1ccc(-c2cn3c(n2)sc2cc(C(=O)NCC(C)c4ccccc4)ccc23)cc1 (stereo unspecified)	-14.2%
CC(C)(C)OC(=O)Cc1nnc(CNC(=O)c2ccccc2)s1	-6.6%
Cc1cccc(NC(=O)CSc2nnc(CNC(=O)c3cccc(C)c3)n2-c2ccccc2)c1	-11.4%
Cc1ccc2[nH]c(=O)c(CCC(=O)NCc3ccco3)cc2c1	-2.1%
O=c1ccc(-c2ccc(Cl)cc2)c2n1C[C@H]1C[C@@H]2CN(S(=O)(=O)c2ccccc2)C1	-19.5%
CC(C)(C)n1cnc2cc(C(=O)N3CCCCC3)ccc21	4.0%
CC(=O)c1cccc(NC(=O)c2c(N3CCCC3=O)c3cc(F)ccc3n2C)c1	-12.7%
CNC(=O)c1cc(C2CC2)nc2c1c(C1CCN(C(=O)C3CCCC3)C1)nn2C (stereo unspecified)	?
Cc1ccc(NC(=O)CN(C)S(=O)(=O)c2cccc3cccnc23)c(C)c1	-0.8%

Twelve entries out of the list, sorted by heavy-atom count, rising:
SMILES	nsP2pro inh
O=C1O[C@@H]2[C@@H](O)[C@H](O)O[C@@H]2[C@H]1O	?
CC(C)(C)n1cnc2cc(C(=O)N3CCCCC3)ccc21	4.0%
Cc1cc(CN2CCC3(C2)C(=O)N(C)c2ccccc23)no1 (stereo unspecified)	-12.2%[39.2 µM]
COc1ccccc1OCCNC(=O)C1(C)CCCCC(=O)N1 (stereo unspecified)	-7.2%
O=C(CCn1ccc(=O)[nH]c1=O)N[C@H](c1cccs1)C1CC(O)C1 (stereo partly specified)	i
Cc1cc(=O)n(CC(=O)N2CCCC(C)(c3ccccc3)C2)nc1C (stereo unspecified)	2.5%
COc1ccc(OC)c(NC(=O)N2CC3CCCN3c3ccccc32)c1 (stereo unspecified)	-21.6%
Cc1ccc(NC(=O)CN(C)S(=O)(=O)c2cccc3cccnc23)c(C)c1	-0.8%
COC(=O)[C@@H]1Cc2ncn(Cc3ccc(Cl)cc3)c2CN1S(=O)(=O)c1cccs1	?
O=c1ccc(-c2ccc(Cl)cc2)c2n1C[C@H]1C[C@@H]2CN(S(=O)(=O)c2ccccc2)C1	-19.5%
CCc1ccc(-c2cn3c(n2)sc2cc(C(=O)NCC(C)c4ccccc4)ccc23)cc1 (stereo unspecified)	-14.2%
Cc1cccc(NC(=O)CSc2nnc(CNC(=O)c3cccc(C)c3)n2-c2ccccc2)c1	-11.4%

(cont.)
SMILES	nsP2pro inh
CC(C)=CCOc1ccc(/C=C/C(=O)c2ccc(OCC=C(C)C)cc2OCC(=O)O)cc1	37.6%[activator]
COc1ccc(-c2csc(N3CCC(C(N)=O)CC3)n2)cc1	i
O=C1NC(Cc2ccccc2)C(=O)N2CCCC12 (stereo unspecified)	16.2%
O=C(O)c1ccc(S(=O)(=O)N[C@H](Cc2ccccc2)C(=O)O)cc1	1.1%
CCOC(=O)c1ccccc1NC(=O)c1cnn(-c2ccc(OC)cc2)c1C1CCN(C(=O)OC(C)(C)C)CC1	-14.8%
CC(C)(C)C(=O)OCOC(=O)[C@@H]1N2C(=O)[C@@H](N=CN3CCCCCC3)[C@H]2SC1(C)C	-6.4%
O=C(C1CCOC1)N1CCC(C(=O)O)(n2ccc(-c3ccco3)n2)CC1 (stereo unspecified)	?
Cc1nc(NC2CCCCC2)c2nc(-c3ccccc3)n(CCN3CCCC3)c2n1	i
COC(=O)/C=C/C=C/C(=O)OC1C=C2COC(=O)C2(O)C2(C)CCCC(C)(C)C12 (stereo unspecified)	7.3%[10 µM]
CCO[C@H]1CN(Cc2cnc(SCc3ccccc3)nc2)C[C@@H]1O	i
CCN1CCCC1CNC(=O)c1cc(S(=O)(=O)CC)ccc1OC (stereo unspecified)	-7.5%
CC(=O)NC(CCC(=O)O)C(=O)NCCc1ccc(O)cc1 (stereo unspecified)	-11.8%
CCN1CCN(CCCNC(=O)c2cc3c(s2)-c2ccccc2OC3)CC1	18.7%
Cc1coc2c(C)c3oc(=O)c(CCC(=O)NCCc4ccccc4)c(C)c3cc12	-17.3%
COc1ccc(N2CCN(C(=O)c3ccc4nc(N5CCC(C)CC5)sc4c3)CC2)cc1	-8.8%
Cc1nc(C)c2c(n1)N(Cc1ccc(-c3ccccc3-c3nn[nH]n3)cc1)C(=O)CC2	-6.4%
COCCCNC(=O)c1ccc2nc(CCc3ccccc3)oc2c1	8.5%
Cc1nc2ccc(C(=O)NC(C(=O)O)c3c(C)n[nH]c3C)cc2[nH]1 (stereo unspecified)	0.9%
c1nc(N2CCNCC2)c2cc(-c3ccc4c(c3)OCO4)ccc2n1	0.9%
C=C1CC/C=C(/C(=O)O)CCC2C1CC2(C)C (stereo unspecified)	-18.6%
COc1cc(OC)cc(C2=Nn3c(nnc3-c3cccc(OC)c3)SC2)c1	i
C=CC(C)(O)C1CC2C3(C)CCCC(C)(C)C3C(O)C(O)C2(C)O1 (stereo unspecified)	2.4%
CCc1ccccc1N(CC)C(=O)Cn1nc(Cc2ccncc2)c2ccccc2c1=O	-10.9%
CN(CC1(C)CCOCC1)C(=O)c1ccccn1	-3.9%
CC(=O)C=C=C1C(C)(C)CC(O[C@@H]2O[C@H](CO)[C@@H](O)[C@H](O)[C@H]2O)CC1(C)O (stereo partly specified)	-1.2%
Cc1ccccc1Nc1nc(-c2cccc(Cl)c2)c2c(n1)-c1ccccc1OC2	-28.5%
COc1ccc(OC)c(CN2CCC3(CC2)Nc2ccccc2NC3=O)c1	-4.2%
Cn1cccc1-c1noc(C2CCN(C(=O)CCCc3ccccc3)C2)n1 (stereo unspecified)	i
Cc1ccc(-n2nc(C)c3c(C(=O)NCc4ccccc4)cc(C4CC4)nc32)cc1	-20.6%
CCOC(=O)C=C(C)C=CC[C@@H](C)CCCC(C)C	-9.7%
CCN(CC)C(=O)c1cc(-c2ccc(Cl)cc2)on1	-11.3%
CCCNc1ccc2nncn2n1	-2.6%
CC(C)Cc1nn2c(=O)cc(COC(=O)c3ccc(NC(=O)CCc4ccccc4)cc3)nc2s1	-15.0%
CCN(CC)S(=O)(=O)c1ccc(OC)c(-n2cnnn2)c1	-16.2%
Cc1cccc(Nc2nc(N)nc(CN3CC[C@@](O)(C4CCC4)[C@H](C)C3)n2)c1	i
Cc1cc(OCC(=O)N2CCN(CCc3ccncc3)CC2)ccc1Cl	-13.6%
Oc1cccc2cc(-c3ccncc3)cnc12	i
N#Cc1c(Cl)cccc1Oc1ccc([S+](=O)([O-])N2CCN([S+](=O)([O-])c3c(F)cccc3F)CC2)cc1	-0.8%
O=C(CSC1=Nc2ccccc2N=C(c2ccc(F)cc2)C1)Nc1cccc(C(F)(F)F)c1	-13.2%
CC1=CC(=O)C(C(C)C)=C/C1=N/OC(=O)c1ccccc1C	0.2%
CCn1c2ccccc2c2cc(Nc3ccnc(NCCCN4CCOCC4)n3)ccc21	83.6%[activator]
COc1ccc(-c2ccc3nnc(CNC(=O)c4ccoc4)n3n2)cc1	i
CC(C=CC=C(C)C=CC1=C(C)CCCC1(C)C)=CC=CC=C(C)C=CC=C(C)C=CC1=C(C)CCCC1(C)C	0.0%[0.199 µM]
COC(=O)c1c(-c2ccc(Cl)cc2)noc1N1CCN(c2ccc(C)cc2C)CC1	-15.4%
O=C(Nc1nc2cccc(-c3ccc(CN4CCS(=O)(=O)CC4)cc3)n2n1)C1CC1	-1.9%&-6.8%
O=C(Nc1nnc(-c2ccco2)o1)c1ccc(Br)cc1	-9.0%
O=C(NC1CCCCC1)N1Cc2[nH]cnc2C[C@H]1c1nc(-c2ccccc2)no1	30.9%[activator][39.2 µM]
CCOC(=O)c1ccc(NC(=O)CC2C(=O)N(c3ccccc3)C(=O)N2Cc2cccs2)cc1 (stereo unspecified)	-6.5%
CCCC(=O)OC[C@@H](OC(=O)CCC)[C@@H](OC(=O)CCC)[C@H](Cn1c2nc(=O)[nH]c(=O)c-2nc2cc(C)c(C)cc21)OC(=O)CCC	0.7µM*
Cc1cccc(NC(=O)c2sc3nc4n(c(=O)c3c2C)N=C(c2ccc(F)cc2)CS4)c1C	-17.2%
Cc1nn2c(c1-c1ccccc1Oc1ccccc1)N(C(=O)c1cccc(C#N)c1)CCC2	-1.1%[39.2 µM]
CC(=O)Nc1ccc(S(=O)(=O)Nc2ccc3n(c2=O)C[C@H]2C[C@@H]3CN(Cc3cn(C)c4ccccc34)C2)cc1	15.3%
COCCNC(=O)[C@@H]1CCC[C@@H](NC(=O)c2c(-c3ccccc3)noc2C)CN(C)C(=O)C1	i
CN1C(=O)CO[C@H]2CN(c3ccc(C#N)cn3)C[C@H]21	i
CC(=O)OC1CC2(C)C3=CCC4(C)C5C(O)C(O)C(C(C)C)C5(C)CCC4(C)C3CCC2C(C)(C)C1OC1OC(CO)C(O)C(O)C1O (stereo unspecified)	?
CN1CCC(C(=O)N2CCC(n3c(=O)[nH]c4ccccc43)CC2)CC1	-1.7%
CC(=O)Nc1sc2c(c1-c1nc3ccccc3s1)CCN(Cc1ccccc1)C2	-17.7%
CN1CCC(Cc2ccc(C(=O)N3CCCC3)cc2)CC1	1.6%
O=c1c2ccc(C(F)(F)F)cc2nc2sc(Nc3ccc4c(c3)CCC4)nn12	i
CC(=O)O[C@@H]1[C@@H](O)[C@H]2O[C@@H]3C=C(C)[C@@H](O)C[C@]3(CO)[C@]1(C)[C@]21CO1	-9.1%

Structures above with a CF3 group (2):
SMILES	nsP2pro inh
O=C(CSC1=Nc2ccccc2N=C(c2ccc(F)cc2)C1)Nc1cccc(C(F)(F)F)c1	-13.2%
O=c1c2ccc(C(F)(F)F)cc2nc2sc(Nc3ccc4c(c3)CCC4)nn12	i

(further entries)
SMILES	nsP2pro inh
CCOc1ccccc1CNCCSc1nnnn1C	-21.2%
Cc1cc(=O)n2nc(N3CCC(C(=O)Nc4ccc(C(C)C)cc4)CC3)sc2n1	-29.5%
[2H]C([2H])([2H])NC(=O)c1nnc(NC(=O)C2CC2)cc1Nc1cccc(-c2ncn(C)n2)c1OC	1.0%
CCc1cc(S(=O)(=O)O)c2cc(C(C)C)cccc1-2	-11.5%
CCNC(=O)N1CCOc2ccc(CCC(=O)N3CCCCC3c3cccnc3)cc2C1 (stereo unspecified)	i
COc1ccc(C(=O)Nc2ccc(-c3nc4ccccc4[nH]3)cc2)cc1OC	i
COc1cccc(CC(=O)N2CCC(CC3CC3)(NC(=O)c3ccccc3)CC2)c1	i
COc1ccc(Nc2cc(C(=O)NCCc3ccc(C)cc3)c3ccccc3n2)c(OC)c1	-13.5%
CC(C)CN1CC(C(=O)NCc2nc(-c3ccccc3)no2)CC1=O (stereo unspecified)	-12.4%
Cc1noc(C)c1C(=O)N1CCN(S(=O)(=O)c2ccc(Cl)nc2)C(=O)C1	-0.2%
CC(C)c1cc(C(=O)N2C[C@@H](C)[C@](O)(C3CC3)C2)nc2ncnn12	-0.1%
COc1cccc(C(=O)NC2CCN(C#N)CC2)c1	-1.8%
CCOc1ccc(N(CC)S(=O)(=O)N2CCCC(C(=O)NCc3ccccc3Cl)C2)cc1 (stereo unspecified)	-12.4%
Cc1cccc(N2CCN(C(=O)C3c4ccccc4CC(=O)N3C)CC2)c1C (stereo unspecified)	-10.3%
Cc1ccc(C(=O)N2C[C@@H](Oc3cccnc3)C[C@H]2C(N)=O)s1	-1.1%
c1ccc(COC2CCN(c3nccc(-c4cccnc4)n3)CC2)nc1	i
CCOc1ccc(-c2cc3c(=O)n(CC(=O)NCc4ccc(Cl)cc4)ccn3n2)cc1	-8.1%
CC(C)(C)OC(=O)NCCOCCOCCOc1ccc(-c2no[n+]([O-])c2C#N)cc1	-0.9%
COC(=O)[C@H]1[C@H]2C[C@@H]3c4[nH]c5cc(OC)ccc5c4CCN3C[C@H]2C[C@@H](OC(=O)/C=C/c2ccc(O)c(OC)c2)[C@@H]1OC	-3.3%
C[C@@H](NC(c1ccc(F)cc1)c1ccc2cccnc2c1O)c1ccccc1 (stereo partly specified)	-0.6%
C[C@H](NC(=O)[C@@H](O)c1cc(F)cc(F)c1)C(=O)N[C@@H]1C(=O)N(C)c2ccccc2-c2ccccc21	?
Cc1ccc(CNc2ccc(N3CCN(C(=O)OC(C)(C)C)CC3)cc2)cc1	-8.4%
O=C(NCCc1ccccc1)c1nn(-c2ccccc2Cl)nc1CO	3.4%
CCN(CC)CCCN(c1ccccc1)C1Cc2ccccc2C1	?
Cc1ccc(C(=O)N2CCCCCNC(=O)[C@@H]3CCC[C@@H]32)s1	0.8%
COC(=O)C1=CO[C@@H](O[C@@H]2O[C@H](CO[C@@H]3O[C@H](COC(=O)/C=C/c4cc(OC)c(O)c(OC)c4)[C@@H](O)[C@H](O)[C@H]3O)[C@@H](O)[C@H](O)[C@H]2O)[C@@H]2C(CO)=CC[C@H]12	?
COc1ccc(NC(=O)Cn2c(=O)n(-c3cccc(C(F)(F)F)c3)c(=O)c3sccc32)cc1	-5.0%
Cc1ccccc1CNC(=O)c1sc2ncnc(N(C)C3CCCCC3)c2c1C	-14.7%
CC1(S(=O)(=O)O)CC(=O)c2ccccc2C1=O (stereo unspecified)	-20.2%
COc1ccccc1OCc1cc(C(=O)N2CCCCCCCC2)n[nH]1	i
